Assay outcomes from PubChem.
Vif TR-FRET: HIV-1 Vif–A3G interaction blockers – biochemical, TR-FRET, GST-Vif 1-94, biotin-A3G peptide, dose response retest, primary screen (AID 1117319) | TR-FRET GST-Vif / biotin-A3G peptide binding; higher % means a stronger effect; test concentration not given here; strong numbers were not always called active | inhibition, %; hits with a dose series show IC50 in µM | actives 0.57% (n = 260,000);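 active = above the screen mean plus three standard deviations and confirmed in dose response; inconclusive = results disagree or hit not tested in dose response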;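 note: Vif residues 1-94 fused to GST binding biotinylated APOBEC3G peptide 110-148; 0% = full assay without inhibitor and 100% = GST in place of GST-Vif; retest series ran down from 100 µM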
RanGTP-Imp inh: inhibitors of RanGTP-importin-beta interaction, primary screen, biochemical, FRET, CFP-Ran, YFP-importin-beta, homogeneous; cell-free CFP-Ran/YFP-importin-beta FRET ratio; inhibition, % (concentration not given with the values); actives 1.1% (n = 300,000); AID 2216;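 active = most replicates above 15%; inconclusive = exactly half above 15%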;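 note: 0% = DMSO wells and 100% = Ran loaded with GDP instead of GTP; wells of about 40 µL received 100 nL stock; the first replicate is given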
Calb FLC: affects C. albicans growth with fluconazole; C. albicans CaCi-2 (fluconazole-resistant clinical isolate) + fluconazole, Alamar Blue growth, 48 h; growth inhibition, % (concentration not given with the values); actives 0.57% (n = 300,000); AID 1979;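 active = most replicates above 75%; inconclusive = exactly half above 75%; inactive = most below 75%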;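 note: all wells also contain fluconazole at 8 µg/ml as a sub-toxic cotreatment; 0% = median of DMSO wells and 100% = median of geldanamycin control wells; wells of about 8 µL received 7.5 nL stock; the first replicate is given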
LANA-H2B inh: blocks KSHV LANA binding to histone H2A/H2B. cell-free LANA-H2A/H2B peptide, fluorescence polarization. inhibition, % (no concentration beside the values). AID 2629. actives 0.6% (n = 320,000); in the data active = inhibition mostly above about 10%, no sharp cut-off; inactive = mostly below about 6.7%;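 note: stock transfer was 7.5 nL into about 10 µL; 0% = median of vehicle wells and 100% = median of positive control wells; one replicate is shown; the record names a cut of 25% in any replicate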
HNF4A DNA FP: change in binding of human HNF4 alpha to DNA | P41235 | HNF4a-FITC DNA binding, fluorescence polarization, 1 h | activity change, % at 10 µM | actives 0.3% (n = 360,000); in the data active = activity change above about 30%, passing the limit was not always enough;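 note: controls were the assay level and a saturating level of protein; the project sought stronger binding though the title names inhibitors; some compounds called inactive have numbers as strong as hits; positive values seem to mean higher polarization but the record does not say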
Target sequence (P41235 whole entry, looked up): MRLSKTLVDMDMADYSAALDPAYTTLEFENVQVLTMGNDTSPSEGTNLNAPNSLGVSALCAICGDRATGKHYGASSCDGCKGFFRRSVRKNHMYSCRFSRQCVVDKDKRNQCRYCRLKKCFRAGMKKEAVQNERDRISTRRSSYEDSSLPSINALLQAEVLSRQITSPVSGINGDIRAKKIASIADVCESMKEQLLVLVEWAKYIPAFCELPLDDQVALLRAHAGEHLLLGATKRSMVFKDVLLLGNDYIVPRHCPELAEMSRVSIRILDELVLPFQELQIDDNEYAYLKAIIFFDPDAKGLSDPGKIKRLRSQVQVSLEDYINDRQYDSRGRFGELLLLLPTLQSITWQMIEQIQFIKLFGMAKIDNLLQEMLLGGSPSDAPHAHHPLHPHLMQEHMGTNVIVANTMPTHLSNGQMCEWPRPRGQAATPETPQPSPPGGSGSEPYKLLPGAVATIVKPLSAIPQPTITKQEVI
Beta2AR agonist: human beta-2 adrenergic receptor agonism by FAP; AID 504454; actives 0.43% (n = 340,000); Am2.2-beta2AR cells, FAP receptor internalization, flow cytometry; reference of the scale not given here; P07550; response, % (no concentration beside the values);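 active = response above a set limit, near 3 SD of response in nonfluorescent compounds, cut at about 42% in these data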;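 note: stock transfer was 100 nL into about 11 µL; a reference agonist was the positive control; negative values mostly stem from fluorescent compounds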
Target sequence (P07550 whole entry, looked up): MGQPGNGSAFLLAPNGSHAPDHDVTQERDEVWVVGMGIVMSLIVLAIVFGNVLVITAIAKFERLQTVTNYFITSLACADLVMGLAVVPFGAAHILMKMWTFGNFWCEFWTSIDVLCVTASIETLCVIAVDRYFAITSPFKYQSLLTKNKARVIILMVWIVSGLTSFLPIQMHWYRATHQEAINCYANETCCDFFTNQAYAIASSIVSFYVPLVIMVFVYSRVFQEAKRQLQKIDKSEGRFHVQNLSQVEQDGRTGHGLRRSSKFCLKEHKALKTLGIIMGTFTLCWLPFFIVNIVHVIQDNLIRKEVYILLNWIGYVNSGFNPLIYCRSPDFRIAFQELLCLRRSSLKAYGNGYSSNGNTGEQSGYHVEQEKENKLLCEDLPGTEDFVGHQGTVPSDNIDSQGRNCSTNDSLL
ALR inh: human ALR oxidase inhibition via reduced H2O2. P55789. purified ALR, DTT oxidation, H2O2 HRP-luminol luminescence. inhibition, % (concentration not given with the values). actives 3.8% (n = 290,000). AID 485317;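 active = mean and each replicate at 75% or more; inconclusive = only one of the two met; inactive = neither met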;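 note: stock transfer was 7.5 nL into about 7.5 µL; 0% = neutral wells and 100% = wells with inactivated enzyme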
Target sequence (P55789 whole entry, looked up): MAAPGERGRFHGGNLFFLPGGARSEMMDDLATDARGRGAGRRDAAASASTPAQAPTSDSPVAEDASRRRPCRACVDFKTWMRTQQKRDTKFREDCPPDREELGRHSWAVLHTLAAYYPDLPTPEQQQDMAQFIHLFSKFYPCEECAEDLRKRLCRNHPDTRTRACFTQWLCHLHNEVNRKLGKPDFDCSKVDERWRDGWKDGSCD
Active calls of the source: *.

The opening 2 entries, ahead of the listing:
How did CC(C)CC(=O)Nc1ncnc2c1C(=O)CC(C)(C)C2 do in these assays?
Vif TR-FRET: -3%; RanGTP-Imp inh: -2.4; Calb FLC: -5; LANA-H2B inh: -4.4; HNF4A DNA FP: -3.4; Beta2AR agonist: -10; ALR inh: -3

Results for COc1ccc(NC(=O)C2CC3C=CC2C3)c([N+](=O)[O-])c1 (centres undefined) ?
Vif TR-FRET: -3%; HNF4A DNA FP: -3.7; Beta2AR agonist: -6

Main list (from the top)
How did CC(C)CC(=O)Nc1ncnc2c1C(=O)CC(C)(C)C2 do in these assays?
Vif TR-FRET: -3%; RanGTP-Imp inh: -2.4; Calb FLC: -5; LANA-H2B inh: -4.4; HNF4A DNA FP: -3.4; Beta2AR agonist: -10; ALR inh: -3

Results for COc1ccc(NC(=O)C2CC3C=CC2C3)c([N+](=O)[O-])c1 (centres undefined) ?
Vif TR-FRET: -3%; HNF4A DNA FP: -3.7; Beta2AR agonist: -6

How did [N-]=[N+]=NC(c1ccccc1)c1nc2ccccc2[nH]c1=O (centres undefined) do in these assays?
Vif TR-FRET: -2%; RanGTP-Imp inh: -2.5; Calb FLC: -18; LANA-H2B inh: -2.6; HNF4A DNA FP: 0.9; Beta2AR agonist: -10; ALR inh: -15

Results for COC(=O)c1cccc(S(=O)(=O)N2CCOCC2)c1 ?
Vif TR-FRET: inconclusive; RanGTP-Imp inh: -0.2; Calb FLC: 0; LANA-H2B inh: -3.0; HNF4A DNA FP: -2.5; Beta2AR agonist: 1; ALR inh: -4

What do the screens show for `Cc1cc(C(F)(F)F)n2ncc(-c3ccc(F)cc3)c2n1`?
Vif TR-FRET: 1%; RanGTP-Imp inh: 6.1; Calb FLC: 2; LANA-H2B inh: 1.6; HNF4A DNA FP: -19; Beta2AR agonist: 2; ALR inh: -1

How did COCC(=O)N1CCCN(c2nc3c(C)cccc3cc2C#N)CC1 do in these assays?
Vif TR-FRET: -6%; RanGTP-Imp inh: 57*; Calb FLC: 4; LANA-H2B inh: 1.5; HNF4A DNA FP: -0.6; Beta2AR agonist: -1; ALR inh: -12

Results for CCCCOc1ccc(C(=O)Nc2ccc(N3CCN(C(=O)C(C)C)CC3)cc2)cc1 ?
Vif TR-FRET: 3%; RanGTP-Imp inh: -1.8; Calb FLC: -3; LANA-H2B inh: 5.2; HNF4A DNA FP: 0.5; Beta2AR agonist: 9; ALR inh: 3

How did CCc1ccc(NC(=O)Cn2ccn(-c3cccc(Cl)c3)c(=O)c2=O)cc1 do in these assays?
Vif TR-FRET: -3%; RanGTP-Imp inh: 8.3; Calb FLC: 2; LANA-H2B inh: 2.2; HNF4A DNA FP: -3.2; Beta2AR agonist: 6; ALR inh: -2

Results for CC(=O)Nc1ccc(NC(=O)CSc2ncc(C(=O)Nc3ccccc3)c(=O)n2C)cc1 ?
Vif TR-FRET: -5%; RanGTP-Imp inh: 7.4; Calb FLC: 8; LANA-H2B inh: -9.3; HNF4A DNA FP: -2.1; Beta2AR agonist: 2; ALR inh: 99*

What do the screens show for `CC1(C)CC2CC(C)(CN2C(=O)COC(=O)c2cncc(Br)c2)C1` (centres undefined)?
LANA-H2B inh: -2.0; HNF4A DNA FP: 6.6; Beta2AR agonist: 1

How did CC1CCCCN1C(=O)Cn1c(=O)oc2cc(S(=O)(=O)N3CCCCC3)ccc21 (centres undefined) do in these assays?
RanGTP-Imp inh: inconclusive; Calb FLC: -20; LANA-H2B inh: -4.2; HNF4A DNA FP: -3.0; Beta2AR agonist: -3; ALR inh: -5

What do the screens show for `NC(=O)/C(=C/c1cccnc1)NC(=O)c1ccccc1`?
Vif TR-FRET: 6%; RanGTP-Imp inh: 1.9; Calb FLC: -5; LANA-H2B inh: 8.9; HNF4A DNA FP: -4.8; Beta2AR agonist: 4; ALR inh: 0

Results for COc1cc2[nH]cc(C(=O)NCc3cccs3)c(=O)c2cc1OC ?
Vif TR-FRET: 12%; RanGTP-Imp inh: 8.9; Calb FLC: 0; LANA-H2B inh: -0.7; HNF4A DNA FP: -1.4; Beta2AR agonist: -1; ALR inh: 0

How did O=C(CSc1ccc(F)cc1)NCC1(N2CCOCC2)CCCCC1 do in these assays?
Vif TR-FRET: 1%; RanGTP-Imp inh: 2.5; Calb FLC: 3; LANA-H2B inh: 1.9; HNF4A DNA FP: -6.2; Beta2AR agonist: -6; ALR inh: -2

Results for COc1ccc(Cn2c(=O)[nH]c3cc(C(=O)N4CCN(c5ccccn5)CC4)ccc3c2=O)cc1 ?
RanGTP-Imp inh: 2.6; Calb FLC: 6; LANA-H2B inh: 1.4; HNF4A DNA FP: 0.2; Beta2AR agonist: 0; ALR inh: 2

What do the screens show for `CCSC1=NSC2=NC(=O)/C(=C\c3coc4ccccc4c3=O)C(=N)N12`?
Vif TR-FRET: 19%; LANA-H2B inh: 8.9; HNF4A DNA FP: 51; Beta2AR agonist: -98; ALR inh: 98*

What do the screens show for `COC(=O)[C@H](CCSC)NC(=O)Cn1cnc2c(OCc3ccccc3)ncnc21`?
Vif TR-FRET: -2%; LANA-H2B inh: -4.7; HNF4A DNA FP: 1.4; Beta2AR agonist: 2

Results for CN(c1ccccc1C(=O)N1CCN(c2ccccc2)CC1)S(C)(=O)=O ?
Vif TR-FRET: 19%; RanGTP-Imp inh: -1.1; Calb FLC: 3; LANA-H2B inh: -0.8; HNF4A DNA FP: 4.8; Beta2AR agonist: -10; ALR inh: 87*

What do the screens show for `CCOC(=O)c1cc2sccc2n1CC(=O)OC`?
Vif TR-FRET: 5%; RanGTP-Imp inh: 3.9; Calb FLC: -2; LANA-H2B inh: 3.8; HNF4A DNA FP: 4.3; Beta2AR agonist: 3; ALR inh: -4

Results for Cc1nc(NC(=O)c2cccnc2Cl)sc1C ?
RanGTP-Imp inh: 0.0; Calb FLC: -3; LANA-H2B inh: 3.6; HNF4A DNA FP: 4.6; Beta2AR agonist: 13; ALR inh: 53

What do the screens show for `COC(=O)c1cc(OC)c(OC)cc1NC(=O)c1ccc(OC)cc1`?
Vif TR-FRET: inconclusive; RanGTP-Imp inh: 4.6; Calb FLC: 8; LANA-H2B inh: 2.5; HNF4A DNA FP: 0.8; Beta2AR agonist: -1; ALR inh: -13

Results for CC(C)CCN1CC(C(=O)N2CCN(c3ccc(F)cc3)CC2)CC1=O (centres undefined) ?
Vif TR-FRET: 4%; RanGTP-Imp inh: -3.4; Calb FLC: -3; LANA-H2B inh: -2.2; HNF4A DNA FP: 5.3; Beta2AR agonist: -1; ALR inh: 14

How did CN1/C(=C\C(=O)c2cccc(S(=O)(=O)N3CCCCC3)c2)C(C)(C)c2ccccc21 do in these assays?
Vif TR-FRET: -8%; RanGTP-Imp inh: 21*; Calb FLC: 8; LANA-H2B inh: -1.7; HNF4A DNA FP: 4.1; Beta2AR agonist: -2; ALR inh: -1

Results for COc1ccc(CN(C(C)=O)c2cccc(C)c2C)cc1 ?
Vif TR-FRET: -9%; RanGTP-Imp inh: -0.9; Calb FLC: inconclusive; LANA-H2B inh: -1.8; HNF4A DNA FP: -0.3; Beta2AR agonist: -10; ALR inh: -10

Results for Cc1c(C(=O)NCCS(=O)(=O)N2CCN(c3ccccc3F)CC2)cccc1[N+](=O)[O-] ?
RanGTP-Imp inh: -1.2; Calb FLC: -4; LANA-H2B inh: 6.1; HNF4A DNA FP: 0.6; Beta2AR agonist: 5; ALR inh: -4

What do the screens show for `CCOC(=O)[C@H]1[C@H]2COc3cc(OC)ccc3[C@@H]2N2C(=O)CN(Cc3ccc(OC)cc3)C(=O)[C@@]12C`?
LANA-H2B inh: -2.5; HNF4A DNA FP: 9.5; Beta2AR agonist: 13; ALR inh: -1

What do the screens show for `CCOCCCNCc1ccc(OCCC(C)C)c(OC)c1`?
Vif TR-FRET: -10%; RanGTP-Imp inh: -2.4; Calb FLC: -2; LANA-H2B inh: -0.4; HNF4A DNA FP: -0.7; Beta2AR agonist: -1; ALR inh: -3

Results for Cc1noc(C)c1CSCC(=O)N(C)CC(=O)Nc1ccc(Cl)c(C(F)(F)F)c1 ?
Vif TR-FRET: 3%; RanGTP-Imp inh: -1.7; Calb FLC: 3; LANA-H2B inh: -1.1; HNF4A DNA FP: -0.4; Beta2AR agonist: 0; ALR inh: -1

Results for CCc1ccc(NC(=O)[C@@H](NC(=O)[C@@H]2Cc3ccccc3CN2)C(C)CC)cc1 (some centres undefined) ?
RanGTP-Imp inh: 3.7; Calb FLC: -10; LANA-H2B inh: 7.4; HNF4A DNA FP: -1.2; Beta2AR agonist: 7; ALR inh: -5

What do the screens show for `CCn1c(SCC(=O)N2CCCc3ccccc32)nnc1-c1cccs1`?
Vif TR-FRET: 3%; RanGTP-Imp inh: 0.5; Calb FLC: -3; LANA-H2B inh: 6.5; HNF4A DNA FP: -1.0; Beta2AR agonist: -23; ALR inh: -4

How did Cc1ccccc1NC(=S)Nc1ccc(Br)cc1 do in these assays?
RanGTP-Imp inh: 1.2; Calb FLC: -15; LANA-H2B inh: -1.5; HNF4A DNA FP: 1.7; Beta2AR agonist: 12; ALR inh: 6

How did Cc1nnc(SCC(=O)N2CC(=O)Nc3ccccc32)n1C do in these assays?
Vif TR-FRET: -1%; RanGTP-Imp inh: -0.7; Calb FLC: -1; LANA-H2B inh: 0.3; HNF4A DNA FP: 1.0; Beta2AR agonist: -3; ALR inh: 0

What do the screens show for `CCCCN1C(=O)C2Cc3c([nH]c4ccccc34)CN2C1=S` (centres undefined)?
Vif TR-FRET: -2%; RanGTP-Imp inh: -3.6; Calb FLC: -19; LANA-H2B inh: 3.1; HNF4A DNA FP: -21; Beta2AR agonist: -226; ALR inh: 89*

What do the screens show for `COc1ccc2nc(NC(=O)c3ccc(Br)s3)sc2c1`?
Vif TR-FRET: -26%; RanGTP-Imp inh: -1.3; Calb FLC: -16; LANA-H2B inh: -1.1; HNF4A DNA FP: 1.1; Beta2AR agonist: -4; ALR inh: 2

What do the screens show for `CN1C(=O)C(CC(=O)O)S/C1=N\N=C\c1ccc(O)cc1O` (centres undefined)?
RanGTP-Imp inh: 2.5; Calb FLC: 3; LANA-H2B inh: -4.3; HNF4A DNA FP: 4.3; Beta2AR agonist: -12; ALR inh: 85*

How did Cc1ccc(CSCc2ccc(C(=O)NCCC(C)C)o2)cc1 do in these assays?
Vif TR-FRET: -3%; RanGTP-Imp inh: 2.2; Calb FLC: 0; LANA-H2B inh: -6.5; HNF4A DNA FP: -4.5; Beta2AR agonist: -5; ALR inh: 8

What do the screens show for `C=CCn1cc(C(=O)N2CCN(C)CC2)c(=O)c2cc(S(=O)(=O)N3CCCC3)ccc21`?
Vif TR-FRET: 11%; RanGTP-Imp inh: 0.7; Calb FLC: -1; LANA-H2B inh: -1.1; HNF4A DNA FP: -0.8; Beta2AR agonist: 0

What do the screens show for `COC(=O)c1cc(OC)c(OC)cc1NC(=O)c1cccc(C)c1`?
Vif TR-FRET: 3%; RanGTP-Imp inh: 2.6; Calb FLC: 3; LANA-H2B inh: 2.4; HNF4A DNA FP: 0.4; Beta2AR agonist: 4; ALR inh: -6

What do the screens show for `CCCCC1=CC2=CC(=O)C(C)(OC(=O)CC)C(=O)C2=CN1c1ccc(OC)cc1` (centres undefined)?
Vif TR-FRET: 29%; RanGTP-Imp inh: -4.3; Calb FLC: -1; LANA-H2B inh: -0.6; HNF4A DNA FP: 1.9; Beta2AR agonist: -4; ALR inh: -10

What do the screens show for `O=C(NC1CC1)C1CC(=O)N(c2cccc(Cl)c2Cl)C1` (centres undefined)?
RanGTP-Imp inh: -1.5; Calb FLC: -24; LANA-H2B inh: 7.0; HNF4A DNA FP: 1.2; Beta2AR agonist: -8; ALR inh: -7
